Assay outcomes: PubChem, National Center for Advancing Translational Sciences (NCATS)
VDR inhibitor: vitamin D3 receptor (human) inhibition. P11473. VDR-SRC2-3 peptide fluorescence polarization, 2 h. Potency, µM, inactives show max response, negative = inhibition, hits mostly inhibitors. actives 0.93% (n = 400,000). AID 504847; active means well fitted inhibition curve with a large enough effect; inconclusive means small, poorly fitted or top-dose-only effect, or another doubt; inactive means no such curve, though single readings can be large or run the other way; further: series mostly up to about 120 µM
Target sequence (P11473 whole entry, looked up): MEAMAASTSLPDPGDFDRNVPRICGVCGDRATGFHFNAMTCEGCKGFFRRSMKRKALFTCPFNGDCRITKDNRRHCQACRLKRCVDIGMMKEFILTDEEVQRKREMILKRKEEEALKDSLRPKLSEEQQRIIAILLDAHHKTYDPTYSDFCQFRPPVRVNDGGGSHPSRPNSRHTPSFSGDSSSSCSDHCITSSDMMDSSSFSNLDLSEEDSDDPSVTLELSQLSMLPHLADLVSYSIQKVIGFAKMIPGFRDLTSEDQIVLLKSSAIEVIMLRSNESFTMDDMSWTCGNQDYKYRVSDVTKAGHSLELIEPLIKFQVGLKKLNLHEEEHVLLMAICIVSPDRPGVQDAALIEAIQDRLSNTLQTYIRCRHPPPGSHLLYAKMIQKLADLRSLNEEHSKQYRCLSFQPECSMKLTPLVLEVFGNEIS
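Two reagent solutions held at 4 deg C in the dark were dispensed, compounds pinned at 23 nl, and the mixture incubated 2 h at room temperature. Read-out: fluorescence polarization of VDR–SRC2-3 peptide binding.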
The depositor's hits bear a star; ? = inconclusive; & = joins results of further samples; [ ] = another dose, or the depositor's remark. On the % scale 0 is the no-effect control and ±100 the full control effect; potency means the concentration at half of the fitted maximal effect. An excerpt, so the mix of outcomes need not match the whole.

VDR inhibitor	structure
-6%	O=C(COc1ccc2ccc(=O)oc2c1)Nc1cc([N+](=O)[O-])ccc1F
-11%	O=C(NCC1CCCO1)C(c1ccco1)N(Cc1ccc(F)cc1)C(=O)CN1C(=O)c2ccccc2S1(=O)=O (stereo not given)
-23%	CC(Oc1cc(F)ccc1[N+](=O)[O-])C(=O)N(C)CC(=O)Nc1ccccc1C(F)(F)F (stereo not given)
19%	Cc1cccc(OCC(=O)NS(=O)(=O)c2ccc(Br)cc2)c1
-13%	COCCN1CCN(C(=O)c2ccc3nc(Cc4ccccc4F)oc3c2)CC1
-5%	S=c1[nH]nc(-c2ccc3ccccc3n2)n1-c1ccc(Cl)cc1
-3%	CC(=O)c1c(C)[nH]c(C(=O)CSc2nnc(CN3CCCCCC3=O)n2-c2ccccn2)c1C
-10%	COc1ccc(OC)c(S(=O)(=O)NCC(c2cccs2)S(=O)(=O)c2ccc(F)cc2)c1 (stereo not given)
-1%	Cc1cc(C)nc(SCC(=O)c2cc3ccccc3oc2=O)n1
-6%	CC(C)(C)C(=O)COC(=O)c1cc(S(=O)(=O)N2CCCCC2)ccc1N1CCOCC1
4%	CCCNC(=O)Cn1cnc2sc(C(=O)Nc3ccc4c(c3)OCO4)c(C)c2c1=O
0%	FC(F)(F)c1nc(N2CCCC2)ncc1-c1nnnn1-c1ccc(Cl)cc1
6%	CC(C)COC(=O)N1CCCC1C(=O)O (stereo not given)
29%	COC(=O)c1cc2oc3ccccc3c2n1Cc1nc(-c2cccc(C)c2)oc1C
-1%	CCN(Cc1ccccc1)C(=O)COC(=O)c1cc(S(=O)(=O)Nc2ccccc2OC)ccc1O
-21%	Cc1cc(S(=O)(=O)N2CCOCC2)ccc1F
?	CN1C(=O)CC(=O)N(C)c2cc(S(=O)(=O)N(C)Cc3ccccc3)ccc21
-1%	CC(=O)/C(=N/Nc1ccc([N+](=O)[O-])cc1)N1CCCc2ccccc21
12%	O=C(O)C1CC=C(Cl)CC1C(=O)NCC1OCCc2ccccc21 (stereo not given)
6%	O=C(O)Cc1sc(NCc2ccco2)nc1-c1ccccc1
-9%	O=[N+]([O-])c1ccc2[nH]c(=S)[nH]c2c1
11%	COc1ccc(/C=N/N2CCOCC2)cc1OCc1ccccc1
-21%	NS(=O)(=O)c1ccc(CCNC(=O)COC(=O)/C=C/c2ccc(Cl)cc2)cc1
2%	Clc1cccc(CSc2nnc([C@@H]3CCCN3)o2)c1
-4%	COc1ccc(OC)c(N/C(=N/c2nc(C)cc(C)n2)NC(C)=O)c1
-12%	Cc1ccc(C2C(C#N)=C(N)OC3=C2C(=O)CCC3)s1 (stereo not given)
1%	COc1ccccc1-c1nc2c3c(-c4ccccc4)c(-c4ccccc4)oc3ncn2n1
17%	COC(=O)c1cc(CSc2nnc(-c3ccccc3)c(-c3ccccc3)n2)oc1C
-6%	C/C(=N/NC(=O)c1ccncc1)c1ccc2c(c1)OCO2
9%	CCOC(=O)N1CCC(N2Cc3cccc(C(=O)Nc4ccc(OCC)cc4)c3C2=O)CC1
0%	O=C(c1ccc(CNS(=O)(=O)c2cccc(Cl)c2)cc1)N1CCCCC1
3%	Cc1ccccc1C(=O)Nc1ccc(-c2nnc(SC(C)C(=O)O)n2C)cc1 (stereo not given)
-12%	S=c1[nH]nc(-c2cccnc2)n1/N=C/C(Cl)=C\c1ccccc1
-8%	COc1cc(OC)c(NC(C)C(=O)NCc2ccccc2)cc1Cl (stereo not given)
48%[activator]	Cc1c(Cl)cccc1NC(=O)CN1CCC(C(O)(c2ccccc2)c2ccccc2)CC1
42%[activator]	COc1cccc(Oc2ccc(C(F)(F)F)cc2NC(=O)CN2C(=O)NC3(CCCC3)C2=O)c1
7%	CC[C@]12c3[nH]c4ccccc4c3CCN1C(=O)C(CC(=O)NCCCn1ccnc1)C[C@@H]2C(=O)N1CCN(C(=O)C2CC2)CC1 (stereo not given in full)
-8%	CCOC(=O)c1sc(N)c(C#N)c1COC(=O)C1=COCCO1
-9%	CCCCCCCCCCCCOC1OC(CO)C(O)C(O)C1NC(C)=O (stereo not given)
-2%	CC(C(=O)Nc1ccc(F)c(F)c1F)N(C)CCOc1ccccc1 (stereo not given)
7%	OC(CN1CCCCC1)CN1CCCCC1
-14%	Cc1ccccc1CNc1ccc(C(CC(N)=O)NC(=O)c2ccccc2)cc1[N+](=O)[O-] (stereo not given)
10%	COc1ccc(CNC(=O)c2ccccc2SC)cc1
11%	COC(=O)C[C@H](NC(=O)Cn1cnc2c(SC)nc(N)nc21)C(=O)OC
6%	Cc1ccc(CCNC(=O)c2cc3cc4cc(C)ccc4nc3s2)cc1
2%	CCCC(=O)Nc1ccc(Cl)c(NC(=S)NC(=O)C(C)C)c1
10%	CCOc1ccc2oc(=O)cc(CN3CCN(c4ccc(Cl)cc4)CC3)c2c1
-17%	COc1ccccc1NC(=O)CN1C(=O)COc2ccc(S(=O)(=O)N3CCCCCC3)cc21
-16%	O=C(c1ccc(Cl)c(S(=O)(=O)N2CCCCC2)c1)N1CCCCCC1
11%	Cc1cccc(C)c1NC(=O)CNC(=O)C(C)N1CCCCC1 (stereo not given)

(listing goes on)
VDR inhibitor	structure
9%	Cc1ccc(S(=O)(=O)NC(=O)NC(C)(C)C)cc1
-29%	COc1ccc(/C=N/NC(=O)c2ccco2)cc1Cn1nc(C)cc1C
-6%	CC(C)(C)NC(=O)CN(C(=O)CCC(=O)Nc1nccs1)c1ccc2c(c1)OCCO2
-4%	COc1ccc(S(=O)(=O)N(C)c2ccc(C(=O)NCc3ccccn3)cc2)cc1OC
-2%	CC1(C)CC(N=C2C([N+](=O)[O-])=CC=C3C2=NC2(CCCCC2)N3O)CC(C)(C)N1
2%	CCOc1ccc(NC(=S)NCc2ccc3[nH]c(C)cc3c2)cc1
5%	Cc1cc2ccccc2n1-c1ccc(C(=O)N2CCC(C(=O)NCc3ccc(F)cc3)CC2)s1
-8%	CCCCSCCCNC(=O)c1cn(C)c2ccc(S(=O)(=O)N3CCCCC3)cc2c1=O
-22%	CSc1nnc(SCC2=NNC(=O)SC2)s1
2%	O=C(COC(=O)c1ccccc1S(=O)(=O)N1CCCCC1)NCC(F)(F)F
-1%	O=C(CSc1ncnc2c1oc1ccccc12)Nc1ccc2c(c1)OCCO2
1%	O=C(NCc1cccnc1)c1ccccc1Br
12%	CCOC(=O)N1CCC(NC(=O)CSCc2nc(-c3ccc(OCC)cc3)oc2C)CC1
-6%	CC(=O)NC(Cc1ccc(F)c(F)c1)C(=O)NC1CCN(C(=O)c2ccc(C)cc2)CC1 (stereo not given)
18%	Cc1ccc(NC(=O)c2cc(C)no2)cc1
-17%&0%	O=C(NCCNCCO)C1(C(F)(F)F)C/C(=C\Cc2ccccc2)CCCO1 (stereo not given)
-5%	CCc1ccccc1NS(=O)(=O)c1ccc2c(c1)C(C)(C)C(=O)N2C
1%	Cc1c(NC(=O)OCCNC(=O)Nc2ccccc2)sc(=S)n1C
-3%	CC(C)(C)CC(=O)NCCc1csc(-c2ccccc2)n1
-4%	COc1ccc(/C=C(\NC(=O)c2cccs2)C(=O)NN)cc1OC
-6%	O=C1CNC(=O)N1c1ccc(Cl)cc1
14%	Cc1cccc(N(Cc2cc3ccccc3[nH]c2=O)C(=O)c2ccco2)c1C
-14%	Cc1cc(NC(=O)CSc2nc3cc(Cl)ccc3o2)no1
7%	CCCS(=O)(=O)N1CCN(Cc2ccncc2)CC1
4%	Cn1c(CC(=O)NCCO)c(Sc2ccccc2)c2ccccc21
-3%	Cc1ccc(S(=O)(=O)C(CNC(=O)COc2ccccc2)c2ccco2)cc1 (stereo not given)
-9%	COc1ccc(/C=C/C(=O)/C=C/c2ccc(OC)cc2OC)c(OC)c1
14%	COc1ccc(/C=N/NC(=O)CNc2ccc(Br)cc2)c(C(=O)O)c1OC
6%	Cc1ccc(S(=O)(=O)NC(C(=O)N2CCOCCOCCOCCOCC2)C(C)C)cc1 (stereo not given)
-3%	Cc1cccc(NS(=O)(=O)c2cc(C(=O)NCc3ccccn3)ccc2C)c1
2%	COc1ccccc1-c1nnc(SCC(=O)N2CCOCC2)o1
-22%	O=C(C1CCCCC1)N1CCC(n2nnc3ccccc32)CC1
5%	CCOc1ccc(C(CC(=O)O)NC(=O)C23CC4CC(CC(C4)C2)C3)cc1OC (stereo not given)
-20%	CC(Sc1nccn1C)C(=O)Nc1ccc(C(N)=O)cc1 (stereo not given)
?	CCc1ccc(NC(=O)[C@H](C)NC(=O)C2CCN(C(=O)[C@@H](N)CC(C)C)CC2)cc1
-1%	COc1ccccc1CN1CCNC(=O)C1CC(=O)NCCCn1cccn1 (stereo not given)
-16%	CCN(C[C@H]1N[C@@](C)(C(=O)OC)[C@H]2C(=O)N(Cc3ccccc3)C(=O)[C@@H]12)C(=O)Nc1ccccc1
-10%	OCC1OC(n2cnc3c(NC4CCCCC4)ncnc32)C(O)C1O (stereo not given)
-11%	COCCN(C(=O)Nc1ccccc1)C(C)c1cccnc1 (stereo not given)
-4%	O=C(OCC(=O)N1CCCCC1)c1ccc(OC(F)(F)F)cc1
-3%	O=C(c1cccc(C(F)(F)F)c1)N1CCN(c2cc(=O)[nH]nc2-c2ccccc2)CC1
-10%	CCOC(=O)COc1nc(C)cc(C(F)(F)F)c1C#N
-1%	COc1ccc(C(=O)N/N=C/c2cccnc2)cc1
-9%	CCC(=O)Nc1ccc(NC(=O)CSc2nc3c(c(=O)n(C)c(=O)n3C)n2CC)cc1
-5%	CN1CC[C@H](c2c(O)cc(O)c3c(=O)cc(-c4ccccc4Cl)oc23)[C@@H](O)C1
-19%	CN1CCc2c(c3cnc4cc(Cl)ccc4c3n2C)C1
-9%	COc1cccc(N2CCN(CC(=O)NCc3ccccc3)CC2)c1
5%	CCC(CC)NC(=O)C1CCN(c2ccc(S(=O)(=O)N3CCOCC3)cc2[N+](=O)[O-])CC1
2%	O=C(O)CCC1CCCC1
1%	COc1ccc(NC(=O)CC2C(=O)OCC3CCCCN32)cc1Cl (stereo not given)

Carrying on:
VDR inhibitor	structure
3%	CSc1ncc(Cl)c(C(=O)NCc2ccc(C)cc2)n1
6%	O=C(NCCc1ccc(F)cc1)C(=O)NCC(c1cccs1)S(=O)(=O)c1cccs1 (stereo not given)
5%	COc1ccc(C)c2sc(=NC(=O)c3ccc(C(C)=O)cc3)n(C)c12
-19%	CC(C)C(=O)NNC(=O)c1c(O)c2ccccc2[nH]c1=O
-11%	Cc1ccc(NC(=O)/C(=C/c2ccncc2)NC(=O)c2ccccc2)cc1
1%	CCc1nc(C)cn1S(=O)(=O)c1cc(Br)c(C)cc1OC
12%	O=C(CN1CCN(Cc2ccccc2)CC1)Nc1cccc(Cl)c1
3%	CCN(C[C@H]1N[C@@](Cc2ccccc2)(C(=O)OC)[C@H]2C(=O)N(Cc3ccccc3)C(=O)[C@@H]12)S(=O)(=O)c1ccc(OC(F)(F)F)cc1
-6%	Cc1ccc(N2CC(C(=O)OCc3ccccc3)CC2=O)cc1 (stereo not given)
-6%	CCn1cc(-c2nnnn2-c2ccc(Cl)cc2)c(=O)c2ccccc21
0%	CSCCC(NS(=O)(=O)c1ccc2c(c1)oc(=O)n2C)C(=O)N1CCN(c2cc(Cl)ccc2C)CC1 (stereo not given)
-1%	O=c1oc2ccccc2c(N2CCCCC2)c1CN1CCCC1
8%	CCCN(CCC)C(=O)Cn1c(=O)n(Cc2ccc(C(=O)NCCc3ccc(Cl)cc3)cc2)c(=O)c2ccccc21
-45%	O=C1CSC(=S)N1/N=C/c1ccc(O)c([N+](=O)[O-])c1
-8%	CCN(CC)CCN1C(=O)C(=O)/C(=C(/O)c2ccc(F)cc2)C1c1ccncc1 (stereo not given)
-17%	CC(NC(=O)C1CCCN(S(=O)(=O)c2cccs2)C1)c1ccccc1 (stereo not given)
1%	Cc1cccc(N2CCN(C(=O)c3cc(S(=O)(=O)N4CCC(C)CC4)cn3C)CC2)c1C
-11%	O=c1cc(C(F)(F)F)[nH]c2ccc(C(F)(F)F)cc12
-13%	COc1ccc(/[N+]([O-])=C/c2ccoc2)cc1
8%	CN(C)c1ccc(C(CNS(=O)(=O)c2ccc(F)cc2)N2CCOCC2)cc1 (stereo not given)
9%	CC1C(=O)N2CCCc3cc(S(=O)(=O)N(C)CCC#N)cc1c32 (stereo not given)
6%	COc1cc(-c2noc(CCCC(=O)Nc3cccnc3)n2)cc(OC)c1OC
0%	COc1ccc(-c2cc3c(=O)n(CC(=O)N4CCCCC4)ncn3n2)cc1
-3%	Cc1nn(-c2ccccc2)c(NC(=O)C(C)C)c(-c2ccccc2)c1=O
19%	CC(=O)O[C@@]1(C)C[C@@H](O)[C@]2(O)C=CO[C@@H](O[C@@H]3O[C@H](CO)[C@@H](O)[C@H](O)[C@H]3O)[C@@H]21
1%	O=C(Nc1ccc(S(=O)(=O)Nc2ncccn2)cc1)c1ccc(Br)s1

Structures listed so far that have a COOH group:
VDR inhibitor	structure
6%	CC(C)COC(=O)N1CCCC1C(=O)O (stereo not given)
12%	O=C(O)C1CC=C(Cl)CC1C(=O)NCC1OCCc2ccccc21 (stereo not given)
6%	O=C(O)Cc1sc(NCc2ccco2)nc1-c1ccccc1
3%	Cc1ccccc1C(=O)Nc1ccc(-c2nnc(SC(C)C(=O)O)n2C)cc1 (stereo not given)
14%	COc1ccc(/C=N/NC(=O)CNc2ccc(Br)cc2)c(C(=O)O)c1OC
5%	CCOc1ccc(C(CC(=O)O)NC(=O)C23CC4CC(CC(C4)C2)C3)cc1OC (stereo not given)
2%	O=C(O)CCC1CCCC1

Ordered by the number under VDR inhibitor (ascending): some entries from above
Molecule	VDR inhibitor
CC(NC(=O)C1CCCN(S(=O)(=O)c2cccs2)C1)c1ccccc1 (stereo not given)	-17%
Cc1cccc(N2CCN(C(=O)c3cc(S(=O)(=O)N4CCC(C)CC4)cn3C)CC2)c1C	1%
O=C(NCCc1ccc(F)cc1)C(=O)NCC(c1cccs1)S(=O)(=O)c1cccs1 (stereo not given)	6%
